Source: PubChem BioAssay
PABP polyA inh: PABP-poly(A) binding inhibition. inhibition, % at 35 µM. AID 2014. PABP-poly(A) RNA binding, fluorescence polarization. hit rate 1% among 290,000;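 active means 50% or more with normal probe brightness, or confirmed in later tests; inconclusive means above 50% with abnormal brightness, or retests that disagree; inactive means below 50% or failed in later tests; about a fifth of its hits are not listed in these tables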;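 further: calls also rest on retests at 20 µM and on dose response follow-up; controls were probe without protein and protein plus probe with vehicle; some compounds called inactive have numbers as strong as hits; many hits fall short of the cut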
MT1-MMP act inh: MT1-MMP (human) activation inhibition. GFP/RFP ratio change, % at 20 µM. AID 651647. hit rate 0.061% among 360,000. HT1080 RFP-PRO-GFP cells, GFP/RFP ratio fluorescence, overnight; percent of plate control window, DMSO zero. P50281;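 active means GFP/RFP ratio change of at least 30% with cell ATP level not reduced by more than half and red fluorescence within 50% of control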; further: strong numbers were not always called active
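Material – HT1080 RFP-PRO-GFP cells · Control set – DMSO wells and RFP-L50D-GFP cells · Incubation – overnight cell settling, then overnight compound exposure, 37 °C, 5% CO2 · Compound dosing – single-point 20 µM compound, 1% DMSO · Read-out – GFP/RFP fluorescence ratio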
eIF4H inh: inhibitors of RNA binding by human eIF4H; Q15056; eIF4H fluorescence polarization binding assay; inhibition, % at 35 µM; hit rate 0.94% among 290,000;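 active means 50% or more with normal probe brightness, or confirmed in later tests; inconclusive means above 50% with abnormal brightness, or retests that disagree; inactive means below 50% or failed in later tests; about a fifth of its hits are not listed in these tables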;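 further: calls also rest on retests at 20 µM and on dose response follow-up; 0% = protein and probe with vehicle and 100% = probe without protein; strong numbers were not always called active; many hits fall short of the cut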
CSC inhib: cancer stem cell inhibition | cancer stem cell-like cells viability, luminescence | inhibition, % at 7.5 µM | hit rate 1.1% among 300,000 | AID 2717;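 active means mean at 75% or more and at least half the replicates too; inconclusive means mean and replicates disagree; tested in HMLE shEcad cells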;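 further: 0% = median of negative and 100% = median of positive control wells; the first replicate is given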
Rce1 inhib: inhibitors of yeast Ras-converting enzyme; AID 2563; hit rate 0.27% among 290,000; calls only; yeast membranes, quenched prenylated peptide cleavage fluorescence;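 active means fall in fluorescence gain of 50% or more versus controls, with final raw signal at or below 3038400; inconclusive means same 50% fall but final raw signal above 3038400; inactive means fall in fluorescence gain under 50%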;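 further: plate controls were neutral control wells for no effect and wells lacking membranes for full effect; tested at 10 µM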
Target sequence (Q03530 whole entry, looked up): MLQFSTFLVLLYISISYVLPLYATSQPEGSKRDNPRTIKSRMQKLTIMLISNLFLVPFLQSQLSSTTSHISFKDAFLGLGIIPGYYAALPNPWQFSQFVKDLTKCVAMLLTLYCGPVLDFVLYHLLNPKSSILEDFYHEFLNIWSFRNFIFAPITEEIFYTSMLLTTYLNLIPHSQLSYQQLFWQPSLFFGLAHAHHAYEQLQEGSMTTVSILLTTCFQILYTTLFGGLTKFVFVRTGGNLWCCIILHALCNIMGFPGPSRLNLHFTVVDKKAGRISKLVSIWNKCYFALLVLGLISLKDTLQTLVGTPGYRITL
UUG fidelity: alters start codon recognition fidelity in yeast; S. cerevisiae UUG-firefly luciferase reporter, luminescence/redox ratio; activity score, % at 18.7 µM; hit rate 0.13% among 350,000; AID 602363;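 active means replicate mean at a twofold rise or more, about +100% in these data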;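 further: firefly luciferase made from a UUG start codon reports start codon fidelity; reporter light over untreated wells divided by growth signal over untreated wells; some hits fall short of that in this replicate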
HIV Env fusion: HIV envelope-mediated fusion inhibition | HeLa-JRFL Env/CEM21 cell fusion, luciferase | inhibition, % at 12.3 µM | hit rate 1.1% among 360,000 | AID 651610;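 active means mean replicate inhibition score of at least 50 and every replicate individually at or above 50; inconclusive means only one of the two criteria met; inactive means mean below 50 and not all replicates reaching 50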;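 further: 0% = plate neutral controls and 100% = maraviroc near 300 nM; one replicate is shown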
eIF4H inh retest: second read-out of eIF4H inh, no call of its own (marks repeat the call); inhibition, %; compound at 20 µM; confirmation average;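 mean of two retest wells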
PABP polyA inh retest: also measured in PABP polyA inh; calls as there; inhibition, %; compound at 20 µM; confirmation repeats;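 mean of two retest wells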
MT1-MMP act inh RFP: also measured in MT1-MMP act inh; calls as there; RFP signal change, %; measured here: RFP expression control read;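 0 = vehicle wells; hits needed this value within 50% of zero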
Active calls of the source: *; i = inactive; u = inconclusive; x = not tested or not shown; & = joins results of further samples. Compounds as they come; about 3% have a hit in one of these screens.

SMILES	PABP polyA inh	MT1-MMP act inh	MT1-MMP act inh RFP	eIF4H inh	CSC inhib	Rce1 inhib	UUG fidelity	HIV Env fusion	others
CC(=O)NCC(=O)OCC(=O)c1ccc(C)c(C)c1	-1	-1	5	-5	-19	i	-5	x
CC1(C(=O)NS(=O)(=O)Cc2cccc(Cl)c2)CCN1C(=O)CCc1cccs1 (stereo unspecified)	x	0	0	x	x	x	2	-26
CN(C)S(=O)(=O)c1ccc(Cl)c(NC(=O)COC(=O)/C=C/c2cnc3ccccc3n2)c1	-3	-6	-3	5	1	i	-14	10
Cc1cccc(CNc2ncnc3[nH]ncc23)c1	x	0	-10	x	x	x	-7	9
CCc1ccc2c(CN(C)Cc3ccccc3OC)cc(=O)oc2c1	17	5	5	6	21	i	-11	-1
O=C(NCc1ccccc1Br)c1cccs1	x	2	2	x	x	x	6	-12
CCOC(=O)c1c(NC(=O)C2=C(C)NC(=S)NC2c2ccc(C)cc2)sc(C)c1C (stereo unspecified)	9	-21	-18	3	1	i	-16	-16
COCCn1c(Cc2cccn2C)nnc1SCC(=O)NCc1ccc2c(c1)OCO2	4	-2	2	-5	-11	i	x	-58
CC(=O)c1ccc(NC(=O)CSc2ccc(-c3ccc(-n4cccn4)cc3)nn2)cc1	x	5	4	x	2	i	x	-10
O=C(NCC1CCCO1)C1CCC(=O)N1Cc1ccccc1Cl (stereo unspecified)	-2	0	-8	-2	11	i	-3	x
COC(=O)C(Cc1ccccc1)NC(=O)c1ccc(NS(=O)(=O)c2ccc3[nH]c(=O)[nH]c3c2)cc1 (stereo unspecified)	x	2	1	x	-4	x	5	-1
COc1ccc(-c2nc3n(c(=O)c2C#N)CCS3)cc1	-5	2	-1	3	-6	i	x	13
COC(=O)Sc1nc(N2CCOCC2)c2c(c1C#N)CC(C)(C)OC2	-16	-5	0	4	2	i	-1	x
CN1C(=O)SC(Nc2cccc3ccccc23)C1=O (stereo unspecified)	-7	-8	2	-3	2	i	-17	x
Cn1c(=O)c2cn(-c3ccccc3)cc2n(C)c1=O	-3	-4	0	-4	8	i	-3	-16
CCOC(=O)c1c(-c2ccc(C)o2)csc1NC(=O)CN(C)CC(=O)Nc1ccc(C)cc1	1	-8	-8	-8	4	i	-6	-12
COc1ccc(NC(=O)C2CCCN2C(=O)Nc2cccc(F)c2)cc1 (stereo unspecified)	-2	-5	-9	0	-16	i	-19	-5
Cc1nc2c(C(=O)NCCc3ccccc3Cl)c[nH]n2c(=O)c1Cl	45	4	4	6	21	i	-9	x
O=C1c2cccc3c(N4CCCCC4)ccc(c23)C(=O)N1c1ccccn1	u	-119	1	u	-3	i	-10	x
CC1Cc2cc(/C(O)=C3/C(=O)C(=O)N(Cc4ccncc4)C3c3ccc(N(C)C)cc3)ccc2O1 (stereo unspecified)	9	-5	5	-17	-8	i	-31	12
CCCc1cc(C(=O)Nc2cc(Br)ccc2O)no1	-6	1	-2	-8	39	i	-1	20
COc1cc(OC)c(-c2nc3ccccc3s2)cc1OC	7	1	-3	4	33	i	x	-5
c1ccc(-c2cc3nc(NCc4cccs4)nc(NCc4ccc5occc5c4)c3s2)cc1	x	-7	-7	x	x	x	-11	18
COc1ccccc1CN1CCNC(=O)C1CC(=O)NCCc1cnccn1 (stereo unspecified)	12	-4	5	12	-3	i	4	-1
CCOc1ccccc1N1CCN(C(=O)c2c(C)noc2C)CC1	-3	1	3	-11	-2	i	9	x
Cc1ccc(C2(c3ccccc3)NC(=O)N(CC(=O)NC3(C#N)CCCC3)C2=O)cc1C (stereo unspecified)	x	4	-4	x	-11	x	6	2
CCOCCCN(C)C1CCN(C(=O)c2oc3ccccc3c2NC(=O)COc2ccc(F)cc2)CC1	3	2	3	-5	-13	i	0	37
CCOC(=O)N1CCN(CC(O)COC(CC)c2ccccc2)CC1 (stereo unspecified)	12	1	1	1	-15	i	-7	x
Cc1ccc(S(=O)(=O)Nc2cc(C(=O)NCCN3CCCC3)ccc2N2CCCCC2)cc1	1	-1	-2	-5	-2	i	-7	x
CCN(C(=O)c1cc(S(=O)(=O)N2CCCCC2)c[nH]1)c1ccc(OC)cc1	4	-10	-4	-6	-4	i	-20	u
Cc1cc(N/C(=N/S(=O)(=O)c2cc(F)ccc2F)c2ccccc2)n(-c2ccccc2)n1	-6	-7	-4	-9	-13	i	x	16
COc1ccccc1N1CSC2=C(C#N)C(c3ccc(SC)cc3)CC(=O)N2C1 (stereo unspecified)	124	-9	-1	u	-4	i	-3	-12	PABP polyA inh retest=45
S=C(N/N=C/c1ccccc1Cl)Nc1cccc(Cl)c1Cl	-6	-3	-3	0	49	i	x	-16
C=CCNC(=O)c1ccc2c(c1)nnn2C	6	-3	2	-4	-4	i	-13	-22
COc1cccc(OC)c1CN(C)C(=O)c1cnccc1C(F)(F)F	1	4	3	-10	5	i	-5	-12
COc1cccc(N2CC(C)Cn3c2nc2c3c(=O)[nH]c(=O)n2C)c1 (stereo unspecified)	-2	10	4	-7	2	i	-2	13
CCOc1ccc(NC(=S)NC(=O)/C=C/c2ccc(OC)c(OC)c2)c([N+](=O)[O-])c1	-5	-4	-1	-2	-9	i	-27	-204
COc1ccccc1NC(=O)CC1COc2ccccc2O1 (stereo unspecified)	11	3	2	-7	-2	i	x	x
C[C@H](NC(=O)c1nc[nH]c1C(=O)NCc1ccc(CNC(=O)OC(C)(C)C)cc1)c1ccccc1	x	7	-22	x	12	x	6	-32
Cc1cc(C)c(S(=O)(=O)N2CCCC2CNC(=O)c2ccc3c(c2)OCO3)c(C)c1 (stereo unspecified)	x	-3	-4	x	6	i	-17	x
C[C@H](CO)N1C[C@H](C)[C@@H](CN(C)C(=O)c2ccncc2)OCc2cnnn2CCCC1=O	x	-1	5	x	x	x	-1&-17	6
CCN(CCO)C(=O)C12CCC(C)(C(=O)C1)C2(C)C (stereo unspecified)	-4	-4	-2	-8	-10	i	-19	-5
Cc1c(C(=O)N2CCOCC2)c(S(=O)(=O)Nc2cccc(C#N)c2)c(C)n1C	2	4	3	0	3	i	-9	0
CCc1ccc(NC(=O)C(CC)c2ccccc2)cc1 (stereo unspecified)	0	-2	-1	-3	6	i	x	6
CCCCNC(=O)[C@@H]1CC=C[C@@H]2CCN(C3CC3)C(=O)[C@@H]21	x	0	1	x	1	i	2	3
CC(C)CN(C(=O)CC1CCCC1)c1c(N)n(Cc2ccccc2)c(=O)[nH]c1=O	x	-1	1	x	x	i	x	9
NCC(O)COCCC12CC3CC(CC(C3)C1)C2 (stereo unspecified)	-4	-1	4	-6	-13	i	14	-8
COC(=O)[C@H](CCSC)NC(=O)Nc1cccc(C)c1C	-14	2	0	2	-9	i	1	9
O=C(O)c1cnc(N2CCOCC2)nc1	12	-2	3	-3	-4	i	x	1
CN(C)c1ccc(/C(=N\O)C(F)(F)F)cc1	-5	-7	-7	-3	-14	i	-24	x
Cc1cccc(OCC(=O)NCC(=O)N/N=C/c2cccnc2)c1	-5	3	-2	-1	-12	i	x	-12
CCC1(CC)C(=O)C2=C3C1[C@H](C(=O)OC)CC(C(=O)OC)C[C@H]3n1c(=O)n(-c3ccccc3)c(=O)n1[C@H]2C (stereo partly specified)	x	x	x	x	-1	i	x	-2
Cn1ccnc1SCCC#N	8	0	0	2	12	i	-16	x
CCC(=O)N1CCc2cc(S(=O)(=O)NC(C(=O)NCc3ccccc3)C(C)C)ccc21 (stereo unspecified)	-8	7	1	-2	x	i	-12	-11
NNC(=O)c1csc(COc2cc(Cl)cc(Cl)c2)n1	1	5	-4	-4	12	i	-10	-15
COc1ccc(CCNC(=O)c2cccc(S(=O)(=O)N3CCCCCC3)c2)cc1	x	-1	-7	x	-17	x	-6	x
C=CCn1c(=S)sc2c(=O)[nH]cnc21	4	-8	-2	-3	-2	i	-8	-8
O=C(NCc1cccnc1)c1csc([C@H]2C[C@H](O)[C@@H](CO)O2)n1	x	0	4	x	x	x	-18	-1
O=C(CCCC(=O)OCC(=O)c1cccs1)Nc1ccc(Oc2ccccc2)cc1	7	5	3	3	65	i	-2	x
C/C(=N\NC(=O)Cc1ccc(Cl)cc1)c1cccnc1	7	1	1	2	-9	i	-16	-27

Further results
SMILES	PABP polyA inh	MT1-MMP act inh	MT1-MMP act inh RFP	eIF4H inh	CSC inhib	Rce1 inhib	UUG fidelity	HIV Env fusion	others
CN(C)C(=O)CN(C)S(=O)(=O)c1ccc(Cl)cc1	-11	5	2	0	2	i	-24	-57
CCOc1ccc(C(C(=O)NC2CCCCC2)N(C(=O)Cc2cccs2)c2ccc(-n3cnnn3)c(OC)c2)cc1 (stereo unspecified)	3	-13	-10	-20	-2	i	x	-3
COc1ccc(CNC(=O)C(C)N2C(=O)NC(c3ccccc3)(c3ccccc3)C2=O)cc1 (stereo unspecified)	x	-1	1	x	x	x	5	-25
CCn1c(C)c(C(C)=O)c(N2CCCCC2)nc1=S	4	x	x	2	-2	i	-23	x
CC(=O)Oc1ccc(C(=O)Nc2cccc(C(=O)c3ccc(C)c(C)c3)c2)cc1	x	5	-10	x	54	i	-7	1
COC(=O)c1ccc(N)cc1O	-11	2	7	2	4	i	0	x
Cc1ccccc1-c1ccc(=O)n(CC(=O)Nc2ccc(N3CCOCC3)cc2)n1	2	-3	3	3	-7	i	x	-24
NC(=O)NCCCC(NC(=O)c1ccc(C#CC2(O)CCCCC2)cc1)C(=O)O (stereo unspecified)	86	1	4	-5	4	i	x	15	eIF4H inh retest=11;PABP polyA inh retest=24
NC(=O)c1ccsc1NC(=O)COC(=O)/C=C/c1ccccc1[N+](=O)[O-]	x	4	-5	x	11	x	-18	11
NS(=O)(=O)c1ccc(NC(=O)c2ccc(F)cc2F)c(NC(=O)c2ccc(F)cc2F)c1	7	-1	3	-4	8	i	-16	3
O=C(CNC(=O)c1ccccc1Cl)Nc1ccc(F)cc1	-2	-5	0	-6	-2	i	x	x
Cc1ccc(N(CC(=O)NCC2CCCO2)S(=O)(=O)c2ccccc2)c(C)c1 (stereo unspecified)	-4	1	0	-7	-6	i	1	-9
COCCOn1c(SCCOC)nc2ccccc2c1=O	0	3	1	2	-10	i	3	8
O=C(Cn1cnc2scc(-c3ccccc3)c2c1=O)NCc1ccco1	27	1	0	80	-11	i	x	10	eIF4H inh retest=-1;PABP polyA inh retest=2
CCCCCN(C(=O)NC(=O)Nn1cnnc1)S(C)(=O)=O	8	-3	3	-2	x	i	-3	x
COc1ccc(C)cc1NC(=O)C1CC(=O)N(CCc2ccccc2)C1 (stereo unspecified)	-5	0	-4	6	12	i	-3	1
N#Cc1c(=O)c2nc(NCc3ccccc3)ncc2n2ccccc12	54*	-7	3	84*	-7	x	-24	-59
O=[N+]([O-])c1ccc(Nc2ccccc2O)c([N+](=O)[O-])c1	x	-34	-1	x	x	x	-16	-12
COc1ccc(CC(O)CO)cc1OCc1ccccc1 (stereo unspecified)	x	-4	-2	x	x	x	-7	-2

Pulled one by one from the list above, 2 records:
SMILES	PABP polyA inh	MT1-MMP act inh	MT1-MMP act inh RFP	eIF4H inh	CSC inhib	Rce1 inhib	UUG fidelity	HIV Env fusion	others
N#Cc1c(=O)c2nc(NCc3ccccc3)ncc2n2ccccc12	54*	-7	3	84*	-7	x	-24	-59
COc1ccc(CC(O)CO)cc1OCc1ccccc1 (stereo unspecified)	x	-4	-2	x	x	x	-7	-2
